2A StopGo: lowers the luciferase signal of an FMDV 2A StopGo reporter | Potency, µM (titrated, usually from 57.9 µM), inactives show at the top dose signal change, negative = less light | human cells with a luciferase reporter of 2A StopGo recoding; control for the full effect not named in the record | 410,000 tested, 1.2% active; active = well fitted falling curve with a large enough effect; inconclusive = small, poorly fitted or top-dose-only effect; inactive = no such curve, though single readings can be large or run the other way; tested in HEK293T cells; note: nearly all actives have a fitted effect of over 45% in size; luciferase light after 4 h
RE007 growth inh: less growth of the S. pombe RE007 Vpr strain | 360,000 tested, 0.21% active | AID 651644 | S. pombe RE007 Vpr strain, BacTiter-Glo ATP luminescence, 24 h; control for the full effect not named in the record | Potency, µM (series often up to 92.2 µM), for the others: at the top dose activity change, negative = less growth; active = well fitted falling curve with a large enough effect; inconclusive = small, poorly fitted or top-dose-only effect; inactive = no such curve, though single readings can be large or run the other way;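 note: nearly all actives have a fitted effect of over 50% in size; the assay follows cell death caused by Vpr and the record does not say whether a fall means rescue or toxicity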
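Fission yeast strain RE007, carrying one chromosomally integrated HIV-1 vpr copy, was seeded at OD 0.01 in PMG+AL medium with 23 nL pinned compound. After 24 h at 30 °C and 99% humidity, viability was read by BacTiter-Glo luminescence.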
* hit, by the source's call; [ ] = another dose, or the depositor's remark. % is set by controls: 0 for no effect and ±100 for the full control effect; potency is the fitted concentration of half-maximal effect. This is a subset; count on the stated rates, not on these rows.

For CCc1cc(C(=O)OCC(=O)NCCc2ccccc2)sc1C the results were 2A StopGo -14% and RE007 growth inh 5%.
COc1cccc(CNC[C@H]2O[C@@H](n3cnc(C(N)=O)n3)[C@H](O)[C@@H]2O)c1OCc1ccc(F)cc1Cl was read as 2A StopGo -2% and RE007 growth inh 1%.
Screening C#CCOCCOCCOCCNc1nc(N2CCOCC2)nc(N2CCN(C(=O)[C@H](CCCCN)n3cc(CCCC)nn3)CC2)n1 returned 2A StopGo -4% and RE007 growth inh -12%.
`CC1(Cc2ccccc2F)C(=O)Nc2c(Cl)ccc(Cl)c21` (stereo not drawn) gave 2A StopGo -24% and RE007 growth inh -17%.
`Cc1ccc(CN2C(=O)CSCC2(C)C(=O)NCc2ccccc2)cc1` (stereo not drawn) gave 2A StopGo -23% and RE007 growth inh -18%.
`CC1=CC(=O)C2=C(C)C[C@H](O)[C@@H]3[C@H](OC(=O)[C@H]3C)[C@@H]12` gave 2A StopGo -12% and RE007 growth inh 1%[18.4 µM].
For COc1cc(OC)nc(Nc2nc(C(N)COCc3ccccc3)cs2)n1 (stereo not drawn) the results were 2A StopGo -11% and RE007 growth inh 6%[18.4 µM].
`CC(C)CCN1CCC[C@]2(N[C@H](c3ccccc3)[C@@H]3C(=O)N(Cc4ccccc4)C(=O)[C@@H]32)C1=O` gave 2A StopGo -14% and RE007 growth inh -6%.
For O=C(COC(=O)/C=C/c1ccco1)NCCN1C(=O)CSC1=O the results were 2A StopGo -15% and RE007 growth inh 3%.
`Cc1ccc(S(=O)(=O)N2[C@H](c3ccc(Cl)cc3)CC(=O)[C@@H]3CN(S(=O)(=O)c4ccccc4C)[C@H](c4ccc(Cl)cc4)C[C@@H]32)cc1` gave 2A StopGo -25% and RE007 growth inh 10%.

Four records picked at random from those above:
`Cc1ccc(S(=O)(=O)N2[C@H](c3ccc(Cl)cc3)CC(=O)[C@@H]3CN(S(=O)(=O)c4ccccc4C)[C@H](c4ccc(Cl)cc4)C[C@@H]32)cc1` gave 2A StopGo -25% and RE007 growth inh 10%.
`Cc1ccc(CN2C(=O)CSCC2(C)C(=O)NCc2ccccc2)cc1` (stereo not drawn) gave 2A StopGo -23% and RE007 growth inh -18%.
`CC(C)CCN1CCC[C@]2(N[C@H](c3ccccc3)[C@@H]3C(=O)N(Cc4ccccc4)C(=O)[C@@H]32)C1=O` gave 2A StopGo -14% and RE007 growth inh -6%.
For COc1cc(OC)nc(Nc2nc(C(N)COCc3ccccc3)cs2)n1 (stereo not drawn) the results were 2A StopGo -11% and RE007 growth inh 6%[18.4 µM].

(continued)
`COc1ccc(CNC(=O)C[C@@H]2C[C@H]3c4cc(NC(=O)C5CCC5)ccc4O[C@H]3[C@@H](CO)O2)cc1` gave 2A StopGo 0% and RE007 growth inh 15%.
Screening CN1CCC(=C(c2ccccc2)c2ccc(Br)cc2)CC1 returned 2A StopGo 0% and RE007 growth inh -10%.
For COc1ccc2c3c(n(C(=O)OC(C)(C)C)c2c1)C1CC=C(COC(C)=O)CN1CC3 (stereo not drawn) the results were 2A StopGo -12% and RE007 growth inh inconclusive.
For CC(C)(CNC(=O)c1cccc(S(=O)(=O)Nc2ccc(SC(F)F)cc2)c1)N1CCOCC1 the results were 2A StopGo 11% and RE007 growth inh inconclusive.
CCc1nc2ccc(C(=O)NCCC(C)C)cn2c1N(C)Cc1nccs1 was read as 2A StopGo -13% and RE007 growth inh -15%.
For CC(C)C[C@H]1CNC(=O)C(=O)N1C[C@@H]1CCCN1C[C@H](Cc1ccccc1)N1C[C@H](Cc2ccccc2)N(CC2CCCCC2)C(=O)C1=O the results were 2A StopGo 60%[activator] and RE007 growth inh -6%.
CCOC(=O)C1(C)CCN1C(=O)c1oc2ccccc2c1C (stereo not drawn) was read as 2A StopGo 8% and RE007 growth inh -10%.
CCOC(=O)C1CN(C(=O)OCC)CC1=NNC(N)=O (stereo not drawn) was read as 2A StopGo -5% and RE007 growth inh -21%.
Screening CNc1cncc(-c2cc(OC)c(OC)c(OC)c2)n1 returned 2A StopGo 8% and RE007 growth inh -17%.
Screening CC(C)(C)n1nnnc1C(c1ccccc1)N1CCN(c2ccccn2)CC1 (stereo not drawn) returned 2A StopGo -19% and RE007 growth inh -15%.
Screening CCOC(=O)[C@]12Cc3cc(C)ccc3[C@H]1N(CCC(=O)OC)C(=O)c1ccccc12 returned 2A StopGo 14µM* and RE007 growth inh -3%.
For CCc1ccc(NC(=O)CCCOc2cc(=O)n(C)c3ccccc23)cc1 the results were 2A StopGo 1% and RE007 growth inh 9%.
COC(=O)[C@]12CCCCC=C1N(CCc1ccc(OC)c(OC)c1)C(=O)[C@H](CC(=O)NCc1cccs1)C2 was read as 2A StopGo -1% and RE007 growth inh 0%.
O=S(=O)(c1ccc(NC(=S)N2CCCCC2CO)cc1)N1CCOCC1 (stereo not drawn) was read as 2A StopGo 15% and RE007 growth inh 14%.
For Cc1ccccc1S(=O)(=O)NC(=O)C1(C)CCN1C(=O)C(C)(C)c1ccccc1 (stereo not drawn) the results were 2A StopGo 29% and RE007 growth inh 2%.
Screening O=C(NCc1nnnn1-c1ccc(Cl)cc1)c1ccc([N+](=O)[O-])o1 returned 2A StopGo inconclusive and RE007 growth inh 5%.
`CCc1nc2c(OCC(=O)C(C)(C)C)cccn2c1N(C)C(=O)C1CC1` gave 2A StopGo -14% and RE007 growth inh 1%.
COc1ccc(-c2csc(C(NC(C)=O)c3ccccc3)n2)cc1 (stereo not drawn) was read as 2A StopGo inconclusive and RE007 growth inh 5%[18.4 µM].
`CCCCCCCCN1C(=O)[C@H](CC(=O)NCCc2ccccc2OC)C[C@@]2(C(=O)OC)CCCCC=C12` gave 2A StopGo -16% and RE007 growth inh 3%.
CCCCCC(=O)N1C[C@H](O)[C@@H](n2cc(COC(=O)c3ccccc3)nn2)C[C@@H]1c1ccc(Cl)cc1 was read as 2A StopGo -15% and RE007 growth inh -4%.
CC1=C(C(=O)N(C(C)C)C(C)C)CC(CC(=O)NC2CCCC2)C(=O)N1Cc1ccc(C(C)(C)C)cc1 (stereo not drawn) was read as 2A StopGo -6% and RE007 growth inh -16%.
For Oc1ccc(C[C@H]2CN([C@@H](Cc3ccc(O)cc3)CN3CCC[C@@H]3CN3C(=S)NC[C@@H]3Cc3ccccc3)C(=S)N2CCc2ccccc2)cc1 the results were 2A StopGo -6% and RE007 growth inh -12%.
Cc1ccc(S(=O)(=O)N2C[C@H]3[C@H]4C(=O)N(c5ccccc5)C(=O)[C@H]4C[C@H](OC(=O)NCc4ccccc4)[C@@]3(O)C2)cc1 was read as 2A StopGo -21% and RE007 growth inh 1%.
Screening CC1(Cc2cc(Cl)ccc2C(F)(F)F)C(=O)Nc2cc(F)ccc21 (stereo not drawn) returned 2A StopGo -8% and RE007 growth inh inconclusive.
Screening CC(=O)c1sc(Nc2cccc3ccccc23)nc1C returned 2A StopGo 62%[activator] and RE007 growth inh 2%.
Screening CCOC(=O)C(=O)N(C)c1c(CC)nc2c(OCc3cccc(OC)c3)cccn12 returned 2A StopGo 4% and RE007 growth inh 5%[18.4 µM].
For O=C(NCCc1cccs1)Nc1ccc2nc([C@@H]3O[C@H](CO)[C@@H](O)[C@H]3O)[nH]c2c1 the results were 2A StopGo -17% and RE007 growth inh -3%[18.4 µM].
`COC(=O)c1ccc(CNC(=O)C2CCC(=O)N(CCc3ccccn3)C2)cc1` (stereo not drawn) gave 2A StopGo -3% and RE007 growth inh 7%.
CC(=O)c1ccc(OC2(C)CCN(Cc3ccc(C)cc3)C2)cc1 (stereo not drawn) was read as 2A StopGo -13% and RE007 growth inh -10%.
CN1CCN(c2ncnc3c2ncn3[C@H]2CN(Cc3ccc(F)cc3)C[C@@H](CO)O2)CC1 was read as 2A StopGo -14% and RE007 growth inh -5%.

Grouped by structure: the compounds so far containing a thiophene ring, fused or not.
For CCc1cc(C(=O)OCC(=O)NCCc2ccccc2)sc1C the results were 2A StopGo -14% and RE007 growth inh 5%.
COC(=O)[C@]12CCCCC=C1N(CCc1ccc(OC)c(OC)c1)C(=O)[C@H](CC(=O)NCc1cccs1)C2 was read as 2A StopGo -1% and RE007 growth inh 0%.
For O=C(NCCc1cccs1)Nc1ccc2nc([C@@H]3O[C@H](CO)[C@@H](O)[C@H]3O)[nH]c2c1 the results were 2A StopGo -17% and RE007 growth inh -3%[18.4 µM].

The listing continues.
Screening CC(C)NC(=O)N(C)C[C@H]1OCCCC[C@@H](C)Oc2ccc(N(C)C)cc2C(=O)N([C@H](C)CO)C[C@@H]1C returned 2A StopGo inconclusive and RE007 growth inh 6%.
`O=C1CCC(C(=O)OCC(=O)Nc2ccccc2Br)=NN1` gave 2A StopGo -20% and RE007 growth inh 2%.
`COC(C/C=C/[C@H](O)[C@@H](C)OCc1ccccc1)OC` gave 2A StopGo -4% and RE007 growth inh -4%.
Screening COc1cc(C=C(C#N)c2ccc([N+](=O)[O-])cc2)ccc1O returned 2A StopGo 1% and RE007 growth inh -2%.
Screening CC1=NCC(C)c2ccccc21 (stereo not drawn) returned 2A StopGo 7% and RE007 growth inh 6%.
Screening COC(=O)c1cc(NC(=O)CC(=O)c2cccc(N)c2)cc(C(=O)OC)c1 returned 2A StopGo -10% and RE007 growth inh -9%.
Cc1cc2c(cc1C)-n1nnnc1C(N1CCN(CC(=O)N3CCCC3)CC1)C(=O)N2 (stereo not drawn) was read as 2A StopGo -15% and RE007 growth inh 13%.
For CC(=NNC(=O)c1ccccc1N)c1ccccc1O the results were 2A StopGo -13% and RE007 growth inh 9%.
For O=C(Nc1cc(C(F)(F)F)cc(C(F)(F)F)c1)[C@H]1O[C@@H](n2ccc(=O)[nH]c2=O)[C@H](O)[C@@H]1O the results were 2A StopGo -21% and RE007 growth inh 0%.
For COc1ccc(C2=NOC(C)(c3sc(-c4ccc(Cl)cc4)nc3C)C2)cc1 (stereo not drawn) the results were 2A StopGo 51%[activator] and RE007 growth inh 15%.
For COc1cccc(C(O)c2nc(-c3cccc(CO)c3)cs2)c1 (stereo not drawn) the results were 2A StopGo 13% and RE007 growth inh 5%.
CN(C)c1ccc(CNC(=O)C2(C)Cc3c(-c4ccc(N(C)C)cc4)ccnc3O2)cc1 (stereo not drawn) was read as 2A StopGo -20% and RE007 growth inh 0%.
`COc1cccc(CN2CCC2(C)C(=O)NCCc2ccccn2)c1OC` (stereo not drawn) gave 2A StopGo -8% and RE007 growth inh -10%[18.4 µM].
`CCCNC(=O)C1(C)CCCN(C(=O)c2cccc(C(F)(F)F)c2)C1` (stereo not drawn) gave 2A StopGo -17% and RE007 growth inh -4%.
Screening Cc1ccc(S(=O)(=O)N2C[C@H]3N(C(=O)OC(C)C)N(C(=O)OC(C)C)C[C@H](OC(=O)NC4CCCC4)[C@@]3(O)C2)cc1 returned 2A StopGo -30% and RE007 growth inh 1%.
Screening Cc1onc(-c2ccccc2)c1-c1nnc(COC(=O)c2ccc(N(C)C)cc2)o1 returned 2A StopGo inconclusive and RE007 growth inh 5%.
`c1ccc(SC23CCCCN(CCC2)C32OCCO2)cc1` (stereo not drawn) gave 2A StopGo -21% and RE007 growth inh 0%.
For Cc1cccc(C)c1-n1nnnc1C(c1ccccc1OC(F)(F)F)N1CCC(n2c(=O)[nH]c3ccccc32)CC1 (stereo not drawn) the results were 2A StopGo inconclusive and RE007 growth inh 10%.
`Cc1c(C(=O)NCc2ccc(F)cc2)sc(=O)n1Cc1ccccc1` gave 2A StopGo -15% and RE007 growth inh -4%[18.4 µM].
For COc1ccc(-c2csc(C(C)(O)c3ccc(F)c(F)c3)n2)cc1OC (stereo not drawn) the results were 2A StopGo -28% and RE007 growth inh 6%.
`N#Cc1ccc(-c2nc3c(Cl)cc(C(F)(F)F)cn3c2Cc2ccccc2C(F)(F)F)cc1` gave 2A StopGo -14% and RE007 growth inh -8%.
COc1ccc(-c2ccc3c(c2)C2CC3CCN2C(=O)C(C)(C)C)cc1 (stereo not drawn) was read as 2A StopGo -25% and RE007 growth inh -28%.
For Cc1cccc(-n2cnc3cc(C(=O)NCC4CCCO4)ccc32)c1 (stereo not drawn) the results were 2A StopGo -9% and RE007 growth inh -4%.
CC(=O)Nc1cnc(/C=C\CCCO)cn1 was read as 2A StopGo 7% and RE007 growth inh -3%.
Cc1ccc(S(=O)(=O)N2C[C@H]3C(=O)C[C@@H](c4ccccc4)N(S(=O)(=O)c4ccccc4C)[C@H]3C[C@H]2c2ccccc2)cc1 was read as 2A StopGo 8% and RE007 growth inh 4%.
`Cc1ccc(F)cc1C(=O)N1CCCC1(C)C(=O)NCC(C)C` (stereo not drawn) gave 2A StopGo -8% and RE007 growth inh -1%[18.4 µM].
Screening CCNC(=O)C1(C)CCCN(C(=O)c2ccnc(Cl)c2)C1 (stereo not drawn) returned 2A StopGo -8% and RE007 growth inh 5%.
Screening COCC(=O)N[C@H]1C=C[C@@H](CC(=O)OC)O[C@@H]1CO returned 2A StopGo -26% and RE007 growth inh 3%.
Screening CC(C)(C)n1nnnc1C(c1ccccc1)N1CCN(c2c(Cl)cncc2Cl)CC1 (stereo not drawn) returned 2A StopGo inconclusive and RE007 growth inh 1%.
Screening COc1ccc(-c2cc(NC(C)=O)c3ncc(-c4ccccc4)n3c2)c(OC)c1 returned 2A StopGo -9% and RE007 growth inh 7%[18.4 µM].
For CCC(c1nc2ccccc2[nH]1)N(Cc1cccnc1)C(=O)c1cc(-c2ccccc2)on1 (stereo not drawn) the results were 2A StopGo 15% and RE007 growth inh -22%.
Cc1cccc(OCCNC(=O)c2cc(C3CC3)nc3c2cnn3C(C)C)c1 was read as 2A StopGo 0% and RE007 growth inh 0%.

Screening data: PubChem, National Center for Advancing Translational Sciences (NCATS)
